# DUX4 txn inh – DUX4-mediated transcription inhibition; 293T-iDUX4 ZSCAN4-Gaussia luciferase reporter, 24 h; hits give low values; activity change, negative = inhibition, % (concentration not given with the values); actives 0.8% (n = 37,000);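 active means -10% or lower and over 25 points stronger than a control reporter; inconclusive means -10% or lower with a smaller gap; inactive means above -10%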;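 further: 0% = median of neutral control wells and -100% = median of positive control wells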
# DUX4 txn inh difference – also measured in DUX4 txn inh; calls as there; Gaussia minus Italica difference, %; measured here: selective DUX4 reporter inhibition;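 worked out from the two reporters; negative = selective loss of the DUX4 reporter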
# DUX4 txn inh control – recorded beside DUX4 txn inh, whose call it bears; activity change, negative = inhibition, %; measured here: Italica tet-on control reporter;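 0 = neutral control and -100 = positive control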
# * = called active by the depositor; ? = inconclusive; / = no result given; & = joins results of further samples. Not all compounds are listed; the hit share may differ from the screen's.
DUX4 txn inh	DUX4 txn inh difference	DUX4 txn inh control	compound
8	8	0.7	COCCNC(=O)[C@@H]1[C@@H](CO)[C@@H]2Cn3c(ccc(-c4ccccc4F)c3=O)[C@@H]2N1C(=O)C1CC1
0	-1	0.4	N#C[C@H]1[C@H](c2ccccc2)[C@H](CO)N1C(=O)Nc1cccc(F)c1
-2	-5	3.2	CO[C@@H]1CN(C)C(=O)c2cc(NC(=O)C3CC3)ccc2OC[C@@H](C)N(C(=O)c2ccccn2)C[C@@H]1C
6	9	-2.6	CCNC(=O)C[C@@H]1CC[C@H]2[C@@H](COC[C@@H](O)CN2C(=O)C2CCCC2)O1
-3	-1	-1.5	C[C@@H]1CN([C@@H](C)CO)C(=O)Cc2cc(NC(=O)NC3CCCCC3)ccc2O[C@@H]1CN(C)Cc1ccc(Oc2ccccc2)cc1
2	2	-0.2	COc1cccc(S(=O)(=O)N2CC[C@@H]3[C@H](CO)Nc4ccc(Br)cc4[C@@H]32)c1
0	-1	0.9	C[C@H](CO)N1C[C@H](C)[C@H](CN(C)CC2CCCCC2)OCCCC[C@H](C)Oc2ccc(NC(=O)CCC(F)(F)F)cc2C1=O
5	1	4.0	Cc1noc(C)c1NC(=O)Nc1ccc2c(c1)C(=O)N([C@H](C)CO)C[C@H](C)[C@H](CN(C)S(=O)(=O)c1cn(C)cn1)OCCCC[C@H](C)O2
-2	-4	1.7	O=C1CN(Cc2ccccc2)C[C@@H]2[C@@H](c3ccc(Br)cc3)[C@H](CO)N12
0	1	-1.2	C[C@H](CO)N1C[C@H](C)[C@H](CN(C)Cc2ccccc2C(=O)O)Oc2ncc(C#CC3CC3)cc2C1=O
7	1	6.1	CN1C(=O)c2cc(NC(=O)Nc3ccccc3Cl)ccc2OC[C@@H]2O[C@H](CC(=O)NCCCN3CCOCC3)CC[C@H]21
-1	-3	1.2	C[C@@H]1CN([C@H](C)CO)C(=O)Cc2cc(NS(=O)(=O)c3cccs3)ccc2O[C@@H]1CN(C)CC1CCCCC1
-3	-1	-2.0	C[C@H]1CN([C@@H](C)CO)C(=O)c2cc(NS(=O)(=O)c3cn(C)cn3)ccc2O[C@H]1CN(C)S(=O)(=O)c1ccc(F)cc1
-1	-2	0.7	CCCN(C)C[C@@H]1Oc2cc(C#CC3CCCCC3)ccc2S(=O)(=O)N([C@H](C)CO)C[C@@H]1C
-4	1	-5.4	O=C(Nc1ccc(F)cc1)N1CC(=O)N2[C@H](CO)[C@H](c3ccc(C4=CCCC4)cc3)[C@@H]2C1
4&16	-1&17	5.1&-1.4	Cc1ccccc1-c1ccc(C2[C@@H]3CN(C(=O)c4cnccn4)C[C@H]2N3)cc1 (stereo partly drawn)
9	3	6.4	COc1ccc(NC(=O)Nc2ccc3c(c2)[C@H]2C[C@H](CC(=O)NCc4ccccc4F)O[C@@H](CO)[C@H]2O3)cc1
4	-4	7.4	COCCNC(=O)C[C@H]1C[C@@H]2c3cc(NC(=O)CN(C)C)ccc3O[C@@H]2[C@H](CO)O1
-1	0	-1.5	CN(C)C(=O)[C@H]1[C@H](CO)[C@H]2Cn3c(ccc(C4=CCCCC4)c3=O)[C@@H]1N2Cc1cccnc1
-1	-2	1.3	CC(C)C(=O)Nc1ccc2c(c1)C(=O)N(C)[C@@H]1CC[C@@H](CC(=O)NCCc3ccccc3)O[C@H]1CO2

# Not a retest: seven of the compounds above.
DUX4 txn inh	DUX4 txn inh difference	DUX4 txn inh control	compound
2	2	-0.2	COc1cccc(S(=O)(=O)N2CC[C@@H]3[C@H](CO)Nc4ccc(Br)cc4[C@@H]32)c1
0	-1	0.9	C[C@H](CO)N1C[C@H](C)[C@H](CN(C)CC2CCCCC2)OCCCC[C@H](C)Oc2ccc(NC(=O)CCC(F)(F)F)cc2C1=O
5	1	4.0	Cc1noc(C)c1NC(=O)Nc1ccc2c(c1)C(=O)N([C@H](C)CO)C[C@H](C)[C@H](CN(C)S(=O)(=O)c1cn(C)cn1)OCCCC[C@H](C)O2
-2	-4	1.7	O=C1CN(Cc2ccccc2)C[C@@H]2[C@@H](c3ccc(Br)cc3)[C@H](CO)N12
0	1	-1.2	C[C@H](CO)N1C[C@H](C)[C@H](CN(C)Cc2ccccc2C(=O)O)Oc2ncc(C#CC3CC3)cc2C1=O
7	1	6.1	CN1C(=O)c2cc(NC(=O)Nc3ccccc3Cl)ccc2OC[C@@H]2O[C@H](CC(=O)NCCCN3CCOCC3)CC[C@H]21
-1	-3	1.2	C[C@@H]1CN([C@H](C)CO)C(=O)Cc2cc(NS(=O)(=O)c3cccs3)ccc2O[C@@H]1CN(C)CC1CCCCC1

# The list continues:
DUX4 txn inh	DUX4 txn inh difference	DUX4 txn inh control	compound
-32*	-27*	-5.4*	COc1ccc2c3c(n(C)c2c1)[C@H](CO)N(C)CC31CN(C(=O)c2ccccc2F)C1
2	4	-1.9	Cc1ccccc1-c1ccc([C@H]2[C@@H](CO)N3CCCCN(C(=O)c4cccnc4)C[C@H]23)cc1
16	10	5.1	COCC(=O)N1CC2(C1)CN(C(=O)Nc1ccccc1F)[C@H](CO)c1[nH]c3cc(OC)ccc3c12
9	-3	13	CCC(=O)N1C[C@H](O)COC[C@H]2O[C@H](CC(=O)N3CCCCC3)CC[C@@H]21
-5	-2	-2.7	Cc1noc(C)c1S(=O)(=O)N(C)C[C@@H]1OCCCC[C@@H](C)Oc2ccc(NC(=O)CCC(F)(F)F)cc2C(=O)N([C@@H](C)CO)C[C@H]1C
-4	-1	-2.7	C[C@H](NC(=O)C[C@H]1C[C@H]2c3cc(NC(=O)NC4CCCCC4)ccc3O[C@H]2[C@@H](CO)O1)c1ccccc1
?	/	/	COc1ccc(S(=O)(=O)N2C[C@@H](O)COC[C@@H]3O[C@H](CC(=O)NCc4ccc(Cl)c(Cl)c4)CC[C@H]32)cc1
?	/	/	O=S(=O)(c1ccccc1F)N1CC[C@H]2[C@H](CO)Nc3ccc(C4=CCCCC4)cc3[C@H]21
?	/	/	N#C[C@H]1[C@@H](c2ccccc2C2=CCCCC2)[C@H](CO)N1C(=O)Cc1ccncc1
-1	-5	3.8	CS(=O)(=O)N1CC(=O)N2[C@H](CO)[C@H](c3ccc(C#CCC4CCCC4)cc3)[C@@H]2C1
1	-2	2.3	CCC(=O)N1[C@H](CO)[C@@H]2c3ccccc3N(C(=O)c3ccc4c(c3)OCO4)C[C@@H]21
-1	5	-6.0	COc1ccc2c3c([nH]c2c1)[C@H](CO)N(C(=O)Nc1ccc(F)cc1)CC31CN(S(=O)(=O)c2ccc(C)cc2)C1
23	18	5.0	COCC#Cc1ccc([C@H]2[C@@H](CO)N3CCCCN(Cc4cccnc4)C[C@@H]23)cc1
7	39	-32	O=C(Nc1cccc(F)c1)N1CCCCN2[C@H](C1)[C@H](c1ccc(C#CC3CC3)cc1)[C@@H]2CO
-4	-5	1.0	CO[C@H](CN(C)S(=O)(=O)c1ccccc1)[C@@H](C)CN(C(=O)Nc1ccccc1F)[C@@H](C)CO
6	-3	9.0	CS(=O)(=O)N1CC(=O)N2[C@@H](CO)[C@@H](c3ccc(C#CC4CCCC4)cc3)[C@@H]2C1
?	/	/	O=C(C1CCC1)N1CC2(C1)[C@@H](c1ccccc1)[C@@H](CO)N2CC1CCCC1
13	7	6.2	CCNC(=O)C[C@H]1CC[C@H]2[C@@H](COC[C@H](O)CN2C(=O)Nc2c(C)noc2C)O1
9	6	3.1	CC=Cc1ccc2n(c1=O)C[C@@H]1[C@@H](CO)[C@H](C(=O)N[C@H](C)c3ccccc3)[C@H]2N1CC (mixture of isomers)
-1	0	-0.9	C[C@@H]1CCCCO[C@@H](CN(C)C(=O)CCCN(C)C)[C@H](C)CN([C@@H](C)CO)C(=O)c2cc(NS(=O)(=O)c3cn(C)cn3)ccc2O1
-4	-7	3.5	CO[C@@H]1CN(C)C(=O)c2ccc(NC(=O)c3ccc(F)cc3)cc2OC[C@H](C)N(C)C[C@H]1C
5	9	-3.9	CN(C)C(=O)c1ccc(-c2ccccc2[C@@H]2[C@@H](CO)N(C(=O)C3CCCCC3)[C@H]2C#N)cc1
-10	-6	-4.1	O=C(Nc1ccccc1F)N1CCCCN2[C@H](C1)[C@H](c1ccc(C#Cc3cccnc3)cc1)[C@@H]2CO
13	9	3.8	CS(=O)(=O)N1[C@H](CO)[C@@H](c2ccccc2-c2ccccc2F)[C@@H]1C#N
0	-2	2.4	C[C@@H]1CN([C@@H](C)CO)C(=O)c2cc(N(C)C)ccc2O[C@@H](C)CCCCO[C@@H]1CN(C)Cc1ccc(C(=O)Nc2ccccc2N)cc1
3	-9	12	Cc1ccccc1S(=O)(=O)N1C[C@@H](O)COC[C@@H]2O[C@H](CC(=O)N3CCCCC3)CC[C@H]21
-1	-5	3.4	C[C@@H]1CN([C@H](C)CO)C(=O)c2cc(-c3ccncc3)cnc2O[C@@H]1CN(C)C(=O)CN1CCOCC1
-3	-2	-1.1	CNC[C@@H]1Oc2ncc(Br)cc2C(=O)N([C@@H](C)CO)C[C@H]1C
-2	-6	3.8	CN1C(=O)c2cc(NC(=O)Nc3ccccc3Cl)ccc2OC[C@H]2O[C@@H](CC(=O)O)CC[C@@H]21
3	-2	5.6	CCc1cnc(N2[C@@H](C#N)[C@H](c3ccc(-c4cccc(F)c4)cc3)[C@@H]2CO)s1
2	-2	4.1	C/C=C/c1cnc2c(c1)C(=O)N([C@H](C)CO)C[C@@H](C)[C@H](CN(C)Cc1ccncc1)O2
4	0	3.3	C[C@@H]1CCCn2cc(nn2)COCCNC1=O
1	0	0.5	CC=Cc1ccc2n(c1=O)C[C@H]1[C@H](CO)[C@@H](C(=O)NCC3CC3)N(Cc3ccncc3)[C@@H]21 (mixture of isomers)
?	/	/	COc1ccc(-c2ccc3c(c2)[C@H]2[C@H](CCN2C(=O)c2ccc4c(c2)OCO4)[C@H](CO)N3)cc1
0	-4	3.9	COCC(=O)Nc1ccc2c(c1)OC[C@@H](C)N(CCC(F)(F)F)C[C@H](C)[C@H](OC)CN(C)C2=O
0	-2	1.3	COc1ccc(CNC(=O)C[C@H]2CC[C@H]3[C@H](COc4ccc(NC(=O)C5CC5)cc4C(=O)N3C)O2)cc1
13	5	8.0	CC=Cc1ccc2n(c1=O)C[C@@H]1[C@@H](CO)[C@H](C(=O)NC3CCC3)N[C@H]21 (mixture of isomers)
0	-3	2.7	CCC(=O)N1[C@H](CO)[C@H]2c3ccccc3N(C(=O)c3ccncc3)C[C@H]21
?	/	/	O=C(C[C@@H]1C[C@@H]2c3cc(NC(=O)Nc4ccc(C(F)(F)F)cc4)ccc3O[C@@H]2[C@@H](CO)O1)NCCc1ccccc1
0	1	-0.5	CNC[C@@H]1Oc2ncc(C3=CCCCC3)cc2C(=O)N([C@H](C)CO)C[C@@H]1C
2	1	1.2	COc1cccc(C#Cc2ccc3c(c2)[C@@H]2[C@@H](CCN2S(=O)(=O)c2ccc(C)cc2)[C@H](CO)N3)c1
2	4	-2.5	C/C=C/c1ccc([C@H]2[C@@H](CO)N(C(=O)C3CC3)C23CN(S(=O)(=O)CC)C3)cc1
?	/	/	COc1ccccc1CNC(=O)C[C@@H]1CC[C@@H]2[C@H](COC[C@@H](O)CN2Cc2cccc(-c3ccncc3)c2)O1
1	0	0.7	C[C@@H]1CN([C@@H](C)CO)C(=O)Cc2cc(NS(=O)(=O)c3cccs3)ccc2O[C@@H]1CN(C)Cc1ccc(-c2ccccc2)cc1
2	8	-5.9	COc1cccc(CNC(=O)[C@@H]2[C@@H](CO)[C@@H]3Cn4c(ccc(-c5ccncc5)c4=O)[C@@H]3N2C)c1
1	-5	6.2	CCCNC(=O)N1[C@H](CO)[C@H](c2ccc(C#Cc3cccc(F)c3)cc2)[C@@H]1C#N
1	1	0.1	CC=Cc1ccc2n(c1=O)C[C@@H]1[C@@H](CO)[C@H](C(=O)NCC)N(CCC(F)(F)F)[C@H]21 (mixture of isomers)
5	9	-4.1	CCS(=O)(=O)Nc1ccc2c(c1)C(=O)N(C)C[C@@H](OC)[C@@H](C)CN(CC1CCCCC1)[C@H](C)CO2
-4	2	-5.2	CO[C@@H]1CN(C)C(=O)c2cc(NC(=O)c3nc4ccccc4s3)ccc2OC[C@@H](C)NC[C@H]1C
-5	-4	-1.3	COc1cccc(S(=O)(=O)Nc2ccc3c(c2)[C@@H]2C[C@@H](CC(=O)N[C@@H](C)c4ccccc4)O[C@H](CO)[C@@H]2O3)c1
4	-1	4.6	COc1cccc(S(=O)(=O)N2C[C@H](O)COC[C@H]3O[C@H](CC(=O)N4CCCCC4)CC[C@@H]32)c1
2	1	1.0	CC(C)[C@@H]1COCc2cn(nn2)CCCCC(=O)N1
1	0	0.5	C[C@@H]1CN([C@@H](C)CO)C(=O)c2cc(-c3cccc(F)c3)cnc2O[C@H]1CN(C)Cc1ccccn1
-1	1	-1.4	CCN1[C@@H]2c3ccc(C4=CCCC4)c(=O)n3C[C@@H]2[C@@H](CO)[C@@H]1C(=O)NCCc1ccccc1
21	5	16	CS(=O)(=O)N1CCCCN2[C@H](CO)[C@H](c3ccc(C4=CCCC4)cc3)[C@@H]2C1
0	1	-1.3	CCS(=O)(=O)N1CC(=O)N2[C@@H](CO)[C@H](c3ccc(C#Cc4ccc(F)cc4)cc3)[C@@H]2C1
0	-3	3.4	COc1cccc(CNC(=O)C[C@@H]2CC[C@@H]3[C@@H](COc4ccc(NS(=O)(=O)c5ccccc5F)cc4C(=O)N3C)O2)c1
4	11	-7.3	C[C@@H]1CN([C@@H](C)CO)C(=O)c2ccccc2-c2ccccc2CO[C@@H]1CN(C)S(=O)(=O)c1ccccc1F
